Screening results as filed in PubChem BioAssay.
PrP 5UTR inh – inhibition of PrP 5' UTR reporter expression | cell-based PrP 5' UTR mRNA reporter, plate reader | inhibition, % (test concentration not listed) | actives 0.35% (n = 340,000);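 active means every replicate at 50% or more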;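 further: 0 = median of the neutral control wells; tested in H4 reporter cells; numbers are from one replicate; inactives centre near -14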
ugtP null kill – growth inhibition of ugtP-null S. aureus, primary screen, RN4220 ugtP deletion, OD600 | growth inhibition, % (test concentration not listed) | actives 0.54% (n = 330,000) | 16 h; some inactives read as strong as hits;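 active means z-score under -3 and OD600 up to 0.15 on both plates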;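 further: plate controls were untreated wells for no effect and antibiotic for full effect; wells of about 80 µL received 100 nL stock; the first replicate is given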
BJeLR viability – MLPCN primary cell-based screen for lethality selective to Ras in HRASV12 cells; actives 0.17% (n = 300,000); inhibition, % (test concentration not listed); BJeLR (HRASV12) viability, CellTiter-Glo ATP luminescence, 48 h; reference of the scale not given here;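 active means replicate mean above 50%; inconclusive means above 50% but judged a plate artefact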;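 further: 50 nL library stock added to about 25 µL; numbers are from one replicate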
RN4220 kill – growth inhibition of S. aureus RN4220, primary screen, OD600 | 16 h | inhibition, % (concentration not given with the values) | actives 0.33% (n = 330,000);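 active means z-score of -3 or lower and OD600 up to 0.18 on both plates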;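 further: plate controls were untreated cells for no effect and reference antibiotic for full effect; stock transfer was 100 nL into about 80 µL; one replicate is shown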
Mtb hypoxia rep – PubChem AID 1159583 | fluorescence inhibition, % (test concentration not listed) | actives 0.1% (n = 300,000) | M. tuberculosis hypoxia-regulated fluorescent reporter, fluorescence;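 active means 35 to 45% if threefold the growth effect, above 45% if 1.5-fold the growth effect; inactive means the rest, general growth blockers included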;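 further: wells of about 50 µL received 100 nL stock; 0% = vehicle wells and 100% = reference inhibitor wells; whole bacteria with a GFP reporter of the hypoxia response; strong numbers were not always called active; many hits fall short of the cut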
Autofluor counter – counter-screen for toxin protease inhibitors: compound fluorescence | compound autofluorescence counterscreen, microsphere flow cytometry; hits give high values | fluorescence intensity (test concentration not listed) | actives 3.1% (n = 360,000) | AID 624483;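 active means at least 3 SD above the mean of all compounds, about 16000 in these data; inconclusive means too few beads counted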;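 further: 100 nL of 1 mM stock went into each well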
Mtb hypoxia rep growth – also measured in Mtb hypoxia rep; calls as there; growth inhibition, %; measured here: M. tuberculosis growth (absorbance);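 0% = vehicle and 100% = reference antibiotic; read after six days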
The depositor's hits bear a star; ? = inconclusive; nt = not tested or not shown.

Sample of the layout (3 entries):
SMILES | PrP 5UTR inh | ugtP null kill | BJeLR viability | RN4220 kill | Mtb hypoxia rep | Mtb hypoxia rep growth | Autofluor counter
Cc1nc(C)c(C(=O)Nc2ccccc2)s1 | -26 | 4 | 9 | 6.2 | nt | nt | 2961
COc1ccc(NC(=O)CN(C)C(=O)c2n[nH]c3ccccc23)cc1 | -66 | nt | 0 | nt | nt | nt | ?
CCOC(=O)c1c(C)[nH]c(C(=O)COC(=O)c2ccc(O)cc2)c1C | -10 | 10 | 5 | 1.1 | 12 | 5 | 4355

This part in full, previewed entries included:
SMILES | PrP 5UTR inh | ugtP null kill | BJeLR viability | RN4220 kill | Mtb hypoxia rep | Mtb hypoxia rep growth | Autofluor counter
Cc1nc(C)c(C(=O)Nc2ccccc2)s1 | -26 | 4 | 9 | 6.2 | nt | nt | 2961
COc1ccc(NC(=O)CN(C)C(=O)c2n[nH]c3ccccc23)cc1 | -66 | nt | 0 | nt | nt | nt | ?
CCOC(=O)c1c(C)[nH]c(C(=O)COC(=O)c2ccc(O)cc2)c1C | -10 | 10 | 5 | 1.1 | 12 | 5 | 4355
O=C(Nc1ccccc1C(=O)N1CCOCC1)c1cccnc1 | -41 | 4 | 2 | 5.1 | 1 | 5 | 11171
O=C(O)CN1C(=O)COc2ccc(S(=O)(=O)N3CCCCCC3)cc21 | -20 | 4 | 2 | 1.2 | -6 | -2 | 5561
CCCC(=O)Nc1ccc(C(=O)NNC(=O)c2cccs2)cc1 | -25 | 5 | 5 | -1.6 | 13 | 2 | 22535*
Cc1cc(C)n(C(=O)c2ccc(C)c(S(=O)(=O)N3CCOCC3)c2)n1 | -20 | 17 | 2 | 26 | 6 | 2 | 2509
Cc1sc2ncnc(N3CCC(C(=O)Nc4cc(Cl)ccc4Cl)CC3)c2c1C | -23 | 0 | -6 | -2.7 | -1 | 5 | 5631
O=c1oc2ccccc2c(NCc2cccc(F)c2)c1[N+](=O)[O-] | -11 | 3 | -2 | -0.1 | 4 | 2 | 8064
CC(=NNC(=O)CNC(=O)c1cccnc1)c1ccc(Cl)cc1 | nt | -2 | nt | 1.5 | 0 | -1 | nt
Cc1sc(N)nc1-c1ccc(Oc2ccccc2)cc1 | -52 | 53 | -14 | 5.6 | -10 | 0 | 3177
Cc1noc(C)c1S(=O)(=O)N(CC(=O)Nc1ccc2c(c1)OCCO2)c1ccc(C(C)C)cc1 | 11 | 4 | 1 | -0.9 | nt | nt | 5645
NC(=S)NNc1cccc(Cl)c1 | -4 | 11 | 2 | -1.6 | nt | nt | 2255
O=C(CNc1ccccc1Cl)Nc1cc(S(=O)(=O)N2CCOCC2)ccc1Cl | -15 | 9 | nt | 3.0 | 3 | -4 | 3546
NC(=O)CCC(NS(=O)(=O)c1ccc(Cl)cc1)C(=O)NCc1ccc(Cl)cc1 (centres undefined) | -17 | -3 | 2 | -6.2 | -4 | 1 | 2354
COc1ccc(-c2nnn(CC(=O)N(CCCO)C(C(=O)NC3CCCC3)c3ccc(F)cc3)n2)cc1 (centres undefined) | -23 | 3 | 3 | 0.6 | 4 | -13 | 4849
Cc1ccc(-c2nn3c(C)nnc3s2)cc1NC(=O)C(C)C | -20 | 4 | -4 | 1.2 | nt | nt | 4236
O=C(NCc1ccccn1)C1(C(F)(F)F)C/C(=C\CCO)CCCO1 (centres undefined) | -10 | nt | 1 | nt | nt | nt | 4264
Cc1cc(NC(=O)CS(=O)CC(=O)Nc2c(C)cccc2C)ccc1-n1cnnn1 (centres undefined) | -1 | 6 | 1 | 2.0 | 1 | 3 | 5128
Cc1ccc(N=C2NC(=O)C(CC(=O)NCc3ccccc3)S2)cc1C (centres undefined) | -6 | 4 | 8 | 1.3 | 7 | 1 | 2496
COC(=O)C1=C(c2ccc(-c3ccccc3)c(F)c2)CC2CCC1N2C(=O)N1CCC(C)CC1 (centres undefined) | nt | 13 | nt | 0.4 | 10 | 10 | nt
COc1cc([C@H]2c3c(cc(OC)c(O)c3OC)C[C@@H](CO)[C@@H]2CO[C@@H]2O[C@H](CO)[C@@H](O)[C@H](O)[C@H]2O)cc(OC)c1O | -23 | -1 | nt | -0.1 | nt | nt | 5571
CCC1(c2ccccc2)NC(=O)N(CC(=O)N2CCN(S(=O)(=O)c3ccccc3)CC2)C1=O (centres undefined) | 41 | 12 | -1 | 1.7 | 2 | 3 | 2627
NS(=O)(=O)c1ccc(NC(=O)Nc2ccc3c(c2)OCO3)cc1 | -49 | 4 | 6 | 0.3 | 14 | 8 | 4575
O=C(Nc1c(C(=O)NCc2ccco2)cnn1-c1ccccc1)c1ccc(F)cc1 | -11 | -5 | 2 | 5.3 | 14 | 4 | 3439

Continued.
SMILES | PrP 5UTR inh | ugtP null kill | BJeLR viability | RN4220 kill | Mtb hypoxia rep | Mtb hypoxia rep growth | Autofluor counter
Cc1cc(C)c(S(=O)(=O)NCc2ccncc2)c(C)c1 | -11 | -5 | 2 | 1.5 | -4 | 4 | 4098
CCOc1ccc(C(=O)Nc2ccc3[nH]ncc3c2)cc1 | -48 | 1 | 6 | 0.9 | 1 | 7 | 3641
CCOC(=O)N1CCC(NC(=S)Nc2ccc3nc(N4CCN(C)CC4)cc(C)c3c2)CC1 | -5 | 5 | -6 | 4.0 | -5 | -1 | 4558
CCC/C(=C1/C(=O)CC(C)(C)C(C(=O)OC)C1=O)N1CCCC1 (centres undefined) | -1 | -9 | -11 | 0.3 | nt | nt | 4932
Cc1cc(C)nc(N2CCC(C(=O)O)CC2)n1 | 5 | 8 | 2 | 4.8 | 2 | 0 | 6566
COc1cccc(CNC(=O)Cn2cccc2)c1 | 2 | 2 | 11 | 2.7 | -3 | -2 | 8063
NC1=NC(=O)C(Cc2ccc(OC(F)(F)F)cc2)S1 (centres undefined) | -36 | 1 | 0 | 3.1 | 4 | -6 | 3688
CCOC(=O)c1c(NC(=O)CSc2nnc(-c3ccco3)o2)sc(C)c1C | -16 | -4 | 6 | 3.7 | 6 | -1 | 8885
CC(C)N(Cc1cc2ccccc2[nH]c1=O)C(=O)c1cccnc1 | -1 | 3 | -11 | 4.0 | 10 | -3 | 2984
COc1ccc(N(CC(=O)Nc2cc(C(=O)O)ccc2C)S(=O)(=O)c2c(C)noc2C)cc1 | -29 | nt | -16 | nt | nt | nt | 16981*
O=C(C1CCCN1S(=O)(=O)c1ccc(Cl)cc1)N1CCN(c2ccccc2)CC1 (centres undefined) | -22 | 8 | nt | 3.4 | 10 | 5 | 3028
Cn1c(=O)c2c(ncn2Cc2cc(-c3ccccc3)no2)n(C)c1=O | -36 | -3 | 9 | 2.0 | nt | nt | 2473
CCc1cccc2c(C(=O)Cn3nnc(-c4ccc(OC)c(OC)c4)n3)c[nH]c12 | -13 | -9 | -2 | 1.5 | nt | nt | 2781
O=C(c1ccc(N2CCN(C(=O)c3ccc(F)c(F)c3)CC2)cc1)c1cccc(F)c1 | -3 | -1 | 0 | -1.3 | -3 | 5 | 5762
Cc1ccc(OCC(=O)c2cc(C)n(CC(F)(F)F)c2C)c([N+](=O)[O-])n1 | -3 | -1 | 0 | 0.7 | 1 | 3 | 3659
O=C(Nc1ccc2c(c1)OCO2)c1cccc(S(=O)(=O)N2CCOCC2)c1 | -19 | -1 | 2 | -1.3 | -2 | 1 | 4369
CC1CCCN(c2cc(N(C)CCO)c([N+](=O)[O-])c3nonc23)C1 (centres undefined) | -14 | 14 | 17 | 4.9 | 15 | -2 | 3606
O=C(CN1C(=O)COc2ccccc21)NCCCN1CCc2ccccc2C1 | -26 | 2 | -5 | -1.3 | 1 | 8 | 7545
COc1coc(C(O)CN)cc1=O (centres undefined) | -6 | 2 | 12 | 11 | 6 | 5 | 2621
CC(=O)NC(CC(=O)Nc1nc(-c2ccccc2)c(C(C)=O)s1)c1ccccc1 (centres undefined) | -16 | 2 | -11 | -5.0 | -8 | 1 | 3969
COc1ccccc1-c1nc(C#N)c(NCCCn2ccnc2)o1 | -23 | 7 | 13 | 0.7 | 12 | 2 | 4177
CCCn1c(SCC(=O)C(C)(C)C)nc2ccccc21 | -15 | 2 | 3 | -2.7 | -6 | -12 | 2194
CCOc1ccccc1NC(=O)CN1CCC(NC(=O)Nc2ccccc2)CC1 | -5 | 11 | -10 | 6.9 | 1 | -5 | 4656
Cc1nnc2n(-c3ccccc3)c(=O)c3c4c(sc3n12)COC(C(C)C)C4 (centres undefined) | -10 | 3 | 6 | 8.4 | 8 | 6 | 3154
O=C(O)CCC(=O)Nc1ccc(Cc2ccc(NC(=O)CCC(=O)O)c(O)c2)cc1O | -28 | -3 | -4 | -0.5 | 7 | 3 | 7564

Other entries follow.
SMILES | PrP 5UTR inh | ugtP null kill | BJeLR viability | RN4220 kill | Mtb hypoxia rep | Mtb hypoxia rep growth | Autofluor counter
CC1CCN(S(=O)(=O)c2ccc(NC(=O)CCN3C(=O)C4CC=CCC4C3=O)cc2)CC1 (centres undefined) | -21 | 8 | nt | 3.4 | 5 | 1 | 6045
COc1cc(CC(=O)Nc2cccc(S(=O)(=O)N(C)c3ccccc3)c2)cc(OC)c1OC | -19 | 1 | nt | 1.5 | 6 | -2 | 6407
CC(C)C(=O)NCCCc1ccccc1 | -11 | -2 | 9 | 0.8 | nt | nt | 3815
O=C(CCl)NCCCN(C(=O)C(Cl)Cl)c1ccc([N+](=O)[O-])cc1 | -42 | -5 | 3 | -3.8 | 20 | 20 | 3981
O=C(NCCN1CCN(c2ccccc2)CC1)c1ccc(NC(=O)C2CCCO2)cc1 (centres undefined) | -4 | 10 | -5 | 4.4 | 3 | 4 | 10240
O=C(CCC1CCCN(C2C3CC4CC(C3)CC2C4)C1)NCc1ccc(F)c(F)c1 (centres undefined) | -15 | 2 | 19 | -2.7 | 11 | 5 | 3242
CN1C(=O)NC(c2ccccc2[N+](=O)[O-])C2=C1CC(C)(C)CC2=O (centres undefined) | -10 | -6 | -12 | 1.5 | 3 | -5 | 4288
CCN(CC)CCN(C(=O)Cn1nnc(-c2ccc(OC)c(OC)c2)n1)C(C(=O)NC1CCCC1)c1ccc(F)cc1 (centres undefined) | -58 | 16 | -3 | 0.9 | 15 | 4 | 6880
CCS(=O)(=O)NC(C)C(c1cccs1)N1CCN(c2ccc(OC)cc2)CC1 (centres undefined) | -16 | 1 | 6 | 4.0 | -1 | -2 | 5120
Cc1ccc2[nH]c(=O)c(-c3nc4c(C)cccn4c3NCc3ccco3)cc2c1 | -16 | -1 | 1 | -2.6 | nt | nt | 2403
C/C(=N/Nc1ccccc1[N+](=O)[O-])c1ccc(C)c([N+](=O)[O-])c1 | -48 | nt | 14 | nt | nt | nt | 3700
CCOC(=O)Cc1csc(NC(=S)NC(=O)c2ccc(F)cc2)n1 | -2 | 18 | -4 | 0.0 | nt | nt | 2380
CCOC(=O)C1(Cc2ccccc2)CCN(Cc2ccc3cc(NC(C)=O)ccc3n2)CC1 | -19 | 2 | 7 | 1.7 | 1 | 4 | 2934
Cc1cccc(CCNC(=O)c2cccc(N3CCCC3=O)c2)c1 | -89 | 17 | -6 | 9.1 | -4 | 4 | 4339
CCOC(=O)C(C)N1CC(=O)N(c2ccccc2)C1=O (centres undefined) | -15 | nt | -8 | nt | nt | nt | 3734
CCc1ccc(C(=O)NNC(=O)Cn2c(=O)cnc3ccccc32)cc1 | -17 | 0 | nt | 3.3 | -1 | 6 | 4186
O=C(NCCN1C(=O)C2C3C=CC(C3)C2C1=O)NCc1ccccc1 (centres undefined) | -22 | 5 | -9 | 0.9 | nt | nt | 5540
CCOC(=O)N1CCN(C(=O)CSCc2nc(-c3ccccc3C)oc2C)CC1 | -41 | 3 | -1 | 4.0 | 8 | -2 | 16597*
COc1ccc(/C(C)=N/NC(=O)c2sccc2-n2cccc2)cc1 | -2 | nt | 10 | nt | nt | nt | 4506
COc1ccc(C(C)(C)C)cc1NC(=O)c1ccc2c(c1)SC1=NS(=O)(=O)CCN12 | -24 | 3 | 0 | 2.2 | 1 | -6 | 3964
COc1ccccc1N1CCN(C(=O)C(Sc2ccccc2)c2ccccc2)CC1 (centres undefined) | -9 | 4 | 10 | 16 | 5 | -15 | 3762

Results in BJeLR viability, ugtP null kill and Mtb hypoxia rep, for some of the entries so far:
compound	BJeLR viability	ugtP null kill	Mtb hypoxia rep
COc1cc(CC(=O)Nc2cccc(S(=O)(=O)N(C)c3ccccc3)c2)cc(OC)c1OC	nt	1	6
CC(C)C(=O)NCCCc1ccccc1	9	-2	nt
O=C(CCl)NCCCN(C(=O)C(Cl)Cl)c1ccc([N+](=O)[O-])cc1	3	-5	20
O=C(NCCN1CCN(c2ccccc2)CC1)c1ccc(NC(=O)C2CCCO2)cc1 (centres undefined)	-5	10	3
